# Screening results as filed in PubChem BioAssay.
# RecA intein inh – Mtb RecA intein splicing inhibitors, primary screen, biochemical, fluorescence, HTS; Protein RecA (Mycobacterium tuberculosis (strain ATCC 25618 / H37Rv)), P9WHJ3; cell-free RecA intein splicing; inhibition, %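 (about 9 µM by stock and volumes)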; 290,000 tested, 0.75% active; in the data active = inhibition above about 30%; inconclusive = no clear call, values can overlap the other calls;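 note: 0% = vehicle wells and 100% = reference inhibitor control wells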
# Target sequence (P9WHJ3 whole entry, looked up): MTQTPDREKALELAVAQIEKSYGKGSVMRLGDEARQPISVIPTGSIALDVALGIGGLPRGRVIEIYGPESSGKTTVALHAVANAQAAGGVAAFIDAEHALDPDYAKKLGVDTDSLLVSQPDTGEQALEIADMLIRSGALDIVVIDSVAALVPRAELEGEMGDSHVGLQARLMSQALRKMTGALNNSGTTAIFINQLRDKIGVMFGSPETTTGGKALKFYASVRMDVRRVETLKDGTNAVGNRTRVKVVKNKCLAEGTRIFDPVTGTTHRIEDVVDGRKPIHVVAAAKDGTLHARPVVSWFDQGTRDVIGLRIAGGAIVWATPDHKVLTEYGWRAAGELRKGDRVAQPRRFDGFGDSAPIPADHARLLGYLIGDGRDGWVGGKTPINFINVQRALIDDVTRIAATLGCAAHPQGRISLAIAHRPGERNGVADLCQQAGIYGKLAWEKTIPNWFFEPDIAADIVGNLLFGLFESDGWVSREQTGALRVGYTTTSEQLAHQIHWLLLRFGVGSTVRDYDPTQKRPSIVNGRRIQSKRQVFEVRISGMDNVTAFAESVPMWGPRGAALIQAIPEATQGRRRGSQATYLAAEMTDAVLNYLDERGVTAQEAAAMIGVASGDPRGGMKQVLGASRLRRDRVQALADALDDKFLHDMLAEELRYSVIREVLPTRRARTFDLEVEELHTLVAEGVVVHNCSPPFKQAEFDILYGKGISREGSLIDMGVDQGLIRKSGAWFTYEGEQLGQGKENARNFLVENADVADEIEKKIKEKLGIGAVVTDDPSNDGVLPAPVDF
# Mtb betalactam – beta-lactam sensitization of Mtb H37Rv, H37Rv. M. tuberculosis H37Rv growth with meropenem, percent inhibition; hits of this screen are not shown here. inhibition, % at 25 µM. 330,000 tested, 0.27% active. AID 434955, 2010;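 active = about 74% or more and at least 40 points above the plate without the antibiotic, then above 30% in a dose series; inconclusive = first-round hits that could not be retested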;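 note: growth measured after seven days incubation then overnight dye step; 0% = bacteria only wells and 100% = bacteria with antibiotic; twin plates without the antibiotic show which effects depend on it; some results filed as inactive read as strong as hits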
# Arbovirus inh – antivirals against arbovirus infection, primary screen, cell-based, full library, 10K replicate subset; inhibition, % at 10 µM; 200,000 tested, 0.37% active; arbovirus infection cell-based antiviral screen;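 active = inhibition from about 30%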;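 note: bluetongue infection of BSR cells; cell survival read as ATP light after 72 h; 0% = infected wells without compound and 100% = uninfected wells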
# Mtb H37Rv – M. tuberculosis H37Rv growth inhibitors, H37Rv strain (AID 1626); M. tuberculosis H37Rv growth inhibition; higher % means a stronger effect; one-dose inhibition, % at 10 µM; IC50 in µM for titrated hits; 220,000 tested, 0.95% active;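 active = confirmed in a dose series; inconclusive = inhibition above 80% but not taken into the dose series; inactive = below 80% or under 30% at every dose of the series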;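 note: bacteria incubated seven days before Alamar blue readout; 0% = bacteria only wells and 100% = bacteria with antibiotic wells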
# YopH PTP inh – YopH tyrosine phosphatase inhibitors, primary screen, biochemical, fluorescence Ex485/Em525; inhibition, %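 (about 10 µM by stock and volumes)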; 140,000 tested, 0.16% active; AID 898, 2007;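 active = inhibition of 50% or more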;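 note: controls were vehicle for no effect and minimum signal wells for full effect; inactives centre near -20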
# Arbovirus inh repeat – second read-out of Arbovirus inh, no call of its own (marks repeat the call); inhibition, %; measured here: 10K subset replicate screen; many hits read low in the repeat;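 first of two repeat runs on a subset; 0% = infected and 100% = uninfected wells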
# Numbers without * were called inactive; ? = inconclusive; . = not tested or not shown.
# Preview:
SMILES,RecA intein inh,Mtb betalactam,Arbovirus inh,Mtb H37Rv,YopH PTP inh,others
CN(CC(=O)N1CCN(c2ccccc2)CC1)S(=O)(=O)c1cnc[nH]1,-0.3,4,0,-19%,-44,
Nc1ccccc1-c1nnn(CC(=O)Nc2ccc3c(c2)OCCO3)n1,3.5,-8,.,.,.,
CC(C)(C)NC(=O)C(c1ccncc1)N(C(=O)c1csnn1)c1ccccc1 (centres undefined),2.4,-5,14,-1%,-7,
COc1ccccc1CNC(=O)CN1CCN(S(=O)(=O)c2cccs2)CC1,4.8,3,1,-2%,.,

# The list itself, from the first entry:
SMILES,RecA intein inh,Mtb betalactam,Arbovirus inh,Mtb H37Rv,YopH PTP inh,others
CN(CC(=O)N1CCN(c2ccccc2)CC1)S(=O)(=O)c1cnc[nH]1,-0.3,4,0,-19%,-44,
Nc1ccccc1-c1nnn(CC(=O)Nc2ccc3c(c2)OCCO3)n1,3.5,-8,.,.,.,
CC(C)(C)NC(=O)C(c1ccncc1)N(C(=O)c1csnn1)c1ccccc1 (centres undefined),2.4,-5,14,-1%,-7,
COc1ccccc1CNC(=O)CN1CCN(S(=O)(=O)c2cccs2)CC1,4.8,3,1,-2%,.,
Cc1ccc(CN2CCCCC2C(=O)Nc2ccc(Oc3cccnc3)cc2)o1 (centres undefined),3.4,?,.,.,.,
CCOC(=O)Cc1csc(NC(=O)c2csc(C)c2)n1,1.0,-6,1,-4%,-28,
CSc1ccc(CN(C)CC(=O)Nc2ccccc2Br)cc1,12,9,6,5%,-16,
Cc1cc(C)nc(NS(=O)(=O)c2ccc(NC(=O)C(C)Oc3ccccc3F)cc2)n1 (centres undefined),0.1,-8,.,.,.,
Cc1ccc(NC(=O)CNC(=O)c2cccc(Cl)c2)nc1,0.9,-10,.,.,.,
Cc1cccc(N(C(=O)c2csnn2)C(C(=O)NCc2ccccc2)c2ccncc2)c1 (centres undefined),-2.0,-4,.,.,.,
O=C(O)CNC1c2ccccc2CSc2ccccc21 (centres undefined),-1.6,-7,.,.,.,
O=C(c1cc(-c2ccc(Cl)s2)nc2ccccc12)N1CCOCC1,-0.1,91,.,.,.,
COc1cccc(C(=O)N/N=C(\CC(C)C)c2ccccc2)c1,-1.5,2,-2,8%,-25,
O=C(CCC(=O)OCc1cccc([N+](=O)[O-])c1)Nc1ccccc1Cl,-1.3,-4,3,5%,.,
O=P(O)(CCc1ccccc1)CN1CCCCC1,-0.9,0,4,-3%,-28,Arbovirus inh repeat=3
CCOc1ccc(N(CC(=O)Nc2ccccc2C(=O)NC(C)CC)S(C)(=O)=O)cc1 (centres undefined),-0.5,5,-13,7%,-25,
COc1ccc(OC)c(C2Nc3nc4ccccc4n3C(C)=C2C(=O)Nc2ccc(C)cc2C)c1 (centres undefined),0.5,14,-19,6%,-9,
O=C(c1cc2c(s1)-c1ccccc1OC2)N1CCCC1,-1.5,0,19,-3%,-54,
CCCNC(=O)c1onc(CSc2ccc(Cl)cc2)c1C(=O)NCCOC,3.5,-7,.,2%,.,
CCOC(=O)C1(Cc2cccc(OC)c2)CCN(CC(O)CO)CC1 (centres undefined),0.7,-1,.,-9%,.,
COC(=O)c1ccc(C(=O)OC)c(NC(=S)N2CCN(c3cccc(Cl)c3)CC2)c1,2.5,71,0,77%,-27,
C=CCNC(=O)CSc1nnc(C(CC)N(C)C)n1C1CCCCC1 (centres undefined),2.5,1,.,-5%,.,
CCOc1cc(C=O)ccc1OCC(=O)N1CCCC1,.,-1,4,-7%,.,
Cc1ccc(NC(=O)c2cc3ccccc3cc2O)cc1,-7.2,5,.,.,.,
COc1ccc(N2CCN(CCCN)CC2)cc1,-1.7,-14,.,-18%,-13,

# (further entries)
SMILES,RecA intein inh,Mtb betalactam,Arbovirus inh,Mtb H37Rv,YopH PTP inh,others
Cc1ccc(NC(=S)N/N=C/c2ccc(OCCC(C)C)cc2)c(C)c1,-0.9,15,2,.,-6,
COc1ccc(Nc2ncnc3c2oc2ccccc23)cc1,1.3,-1,4,9%,-18,Arbovirus inh repeat=-3
COc1cccc(OCC(=O)O/N=C(\N)c2ccc(OC)c(OC)c2)c1,-2.4,0,9,6%,-30,
COc1ccc(C)cc1S(=O)(=O)N(C)CC(=O)N1CCC(C(N)=O)CC1,-1.2,-3,3,-4%,.,
COc1ccccc1C(NC(C)=O)c1c(O)ccc2ccc(O)cc12 (centres undefined),79*,31,.,.,.,
N=C1c2ccccc2CN1NC(=O)c1cccc(S(=O)(=O)N2CCCC2)c1,-0.4,-2,0,-4%,-24,
O=C(c1ccc(CS(=O)(=O)c2c(Cl)cccc2Cl)o1)N1CCN(c2ccccn2)CC1,0.3,3,-10,0%,-4,Arbovirus inh repeat=-8
CCC(C(=O)Nc1ccc(C(C)C)cc1)c1ccccc1 (centres undefined),2.0,7,13,-2%,.,
O=C(OCc1c(F)cccc1Cl)c1cnccn1,2.0,83,6,13%,-30,
CC(=O)O[C@@]12CO[C@@H]1C[C@@H](O)[C@@]1(C)C(=O)[C@H](O)C3=C(C)[C@@H](OC(=O)[C@H](O)[C@@H](NC(=O)c4ccccc4)c4ccccc4)C[C@@](O)([C@@H](OC(=O)c4ccccc4)C12)C3(C)C (some centres undefined),19,3,.,.,.,
COc1ccc(N(C)S(=O)(=O)c2c(C)[nH]c(=O)[nH]c2=O)cc1,2.4,?,2,2%,-17,
CC(=O)Nc1ccc(NC2=CC(=O)c3ccccc3C2=O)cc1,23,0,.,.,.,
O=C1c2ccccc2C(=O)c2c(Nc3ccc(CCO)cc3)ccc(O)c21,17,?,.,21%,.,
COc1ccc(S(=O)(=O)Nc2cccc(SC)c2)cc1C(=O)N1CCOCC1,11,-2,.,.,.,
CCN(CC)S(=O)(=O)c1ccc(/C=C/C(=O)OCC(=O)N(C)C)cc1,-3.8,11,19,9%,.,
Cc1ccc2nc(-c3ccc(NC(=S)NCCC(C)C)cc3)sc2c1,-4.1,-7,.,1%,-2,
COc1ccc2c(C)c(Cl)c(=O)oc2c1,-8.6,-7,2,3%,-15,
Cc1cccc(NC(=S)NCC(c2cccnc2)N2CCOCC2)c1 (centres undefined),-0.7,4,4,-6%,-21,
COc1ccc(-c2nc(N)ncc2-c2ccc(Cl)cc2)c(O)c1,0.8,-1,.,.,.,
COc1ccc(N2CCN(C(=O)C3CCCN(S(=O)(=O)c4ccc5c(c4)oc(=O)n5C)C3)CC2)cc1 (centres undefined),-5.7,2,.,.,.,
CCCc1cc(=O)[nH]c(SCC(=O)Nc2sc3c(c2C#N)CCCC3)n1,3.6,-2,.,.,.,
Cc1cc(C)c2nc(SCCc3ccccc3)nc(C)c2c1,7.7,90,0,11%,-15,
O=C(NCC1CCCO1)C1CCCN1C(=O)NC1CCCCC1 (centres undefined),1.6,-4,-1,-13%,-14,
Cc1cc(NC(=O)c2cccc(S(=O)(=O)N3CC(c4ccccc4)CC3=O)c2)no1 (centres undefined),0.0,-6,-2,-12%,5,Arbovirus inh repeat=-1
Cn1c(Cn2c(=O)sc3ccccc32)nnc1SCC(=O)NCc1ccccc1,.,-1,9,2%,-27,Arbovirus inh repeat=3

# (more compounds)
SMILES,RecA intein inh,Mtb betalactam,Arbovirus inh,Mtb H37Rv,YopH PTP inh,others
COc1ccc(CCNC(=O)C2CCN(C(=O)c3ccc([N+](=O)[O-])cc3)CC2)cc1,2.4,2,6,-6%,.,
Cc1cccc(OCc2nnc(SCC(=O)N3CC(=O)Nc4ccccc43)o2)c1,-3.9,-7,-1,10%,.,
C/C(=C/c1ccccc1)C(=O)N1CCN(c2ccccc2)CC1,0.2,-1,.,.,.,
COc1ccc(OC)c(/C(O)=C/C(=O)C(=O)Nc2cc(C)cc(C)c2)c1,2.0,2,0,1%,-20,
CCN(CC(=O)Nc1ccc(C)c(F)c1)CC(=O)NC(C)(C)C,-1.0,6,-4,5%,.,
CCCn1c(SCC(=O)N2CCN(CC)CC2)nc2c1c(=O)n(C)c(=O)n2C,-2.2,-1,.,.,.,
CC(C)CN1CCNC(=O)C1CC(=O)NCCc1ccc(C(F)(F)F)cc1 (centres undefined),2.6,0,0,1%,.,
Cc1csc(SCC(=O)Nc2nc3ccccc3s2)n1,5.7,18,4,69%,-1,
Cc1c(NC(NC(=O)CC(C)C)C(Cl)(Cl)Cl)c(=O)n(-c2ccccc2)n1C (centres undefined),-0.2,-3,6,1%,.,
CCN(CC)C(=O)N1c2ccccc2C=Cc2ccccc21,9.0,53,26,8%,8,
COc1ccc(NC(=O)CCNS(=O)(=O)c2ccc3c(c2)CCC(=O)N3)cc1,-0.7,7,0,-6%,-13,
O=C(Nc1cccc(S(=O)(=O)N2CCCCCC2)c1)c1cc(=O)c2ccccc2o1,.,-8,-2,7%,.,
Cc1ccccc1Nc1nc(N)nc(COC(=O)[C@@H](NC(=O)c2c(F)cccc2F)C(C)C)n1,1.3,-1,.,.,.,
Cc1c(-c2ccc(F)cc2)nc(N)c(C#N)c1-c1cccs1,2.2,5,-1,11%,2,
CCCCOC(=O)c1cc(=O)[nH]c(=O)[nH]1,1.5,-3,-1,-4%,.,Arbovirus inh repeat=-2
Cc1ccc(NC(=O)c2ccco2)c(NC(=O)c2cccs2)c1,-1.3,2,-1,4%,-22,
COC12NC(=O)N(C)C1(OC)C(=O)N(C)C(=O)N2C (centres undefined),-2.8,-4,3,3%,-5,
CN(Cc1nnc(-c2ccc(F)cc2)o1)c1ccccc1,5.1,-2,.,.,.,
COc1ccc(CN2CC(C(=O)NCCC3=CCCCC3)CC2=O)cc1 (centres undefined),2.6,0,1,9%,-13,
O=C(NCCCN1CCOCC1)c1ccc2c(c1)N(Cc1ccc(Cl)cc1)C(=O)c1ccccc1S2=O (centres undefined),-0.6,2,.,.,.,
O=C(O)CCC(=O)NNc1ccccc1[N+](=O)[O-],1.1,-8,-5,-1%,-18,
COC(=O)c1cc(-c2c(C)nn(-c3ccccc3)c2C)n[nH]1,2.1,2,-2,3%,-18,
CC(=O)Nc1ccc(Nc2nc(C)nc3c2oc2ccccc23)cc1,3.4,4,-8,9%,-44,
O=C1C(=O)c2ccccc2C(O)=C1c1ccccc1F,2.9,3,.,-2%,.,
C[C@]12CC[C@@H]3c4ccc(O)cc4CC[C@H]3[C@@H]1CC[C@@H]2OC(=O)CCC1CCCC1,15,72,.,78%,.,

# (next part)
SMILES,RecA intein inh,Mtb betalactam,Arbovirus inh,Mtb H37Rv,YopH PTP inh,others
Cn1c(SCCC#N)nnc1-c1ccc(F)cc1,3.3,5,3,-5%,.,
COc1ccc(C(=O)Nc2ccccc2C(=O)Nc2ccncc2)cc1,0.7,-2,.,.,.,
O=C1CC(N2CCN(Cc3ccc4c(c3)OCO4)CC2)C(=O)N1c1ccccc1 (centres undefined),-8.4,-10,3,-8%,-26,
COC(=O)c1ccc(C(=O)OCCCc2nc3ccc(N)cc3[nH]2)cc1,.,-3,-8,-8%,-22,
O=C(COc1cc(Cl)c(Cl)cc1Cl)N1CCN(c2ccccn2)CC1,-1.2,-1,3,10%,.,
Cc1cccc(NC(c2ccc(O)cc2)c2ccc3ccc(C)nc3c2O)n1 (centres undefined),7.5,2,1,-13%,-9,
Cc1nc(SCCc2ccccc2)[nH]c(=O)c1C,1.5,?,.,.,.,
COc1ccc(/C=C/C(=O)NC(=S)Nc2ccc(S(=O)(=O)Nc3cc(OC)ncn3)cc2)cc1,.,.,12,2%,.,
NC(=O)c1ccc(C23CC4CC(CC(C4)C2)C3)o1,1.6,4,-3,10%,-5,
CCCSc1nc2c(c(=O)[nH]c(=O)n2C)n1Cc1ccc(C)cc1,0.7,-1,-15,-1%,6,
O=c1cc(N2CCCCC2)c(-c2ccccc2)nn1Cc1ccccc1,24,3,-20,4%,.,
CCOc1cccc(-c2nn3c(-c4ccco4)nnc3s2)c1,-0.6,6,-19,-2%,-41,
CCOC(=O)c1csc(NC(=O)c2ccc(S(=O)(=O)N(C)C)cc2)n1,-0.8,9,-1,-9%,-40,
Cc1ccc(C(=O)CC2(O)C(=O)N(CN3CCOCC3)c3ccccc32)cc1 (centres undefined),-2.7,1,-6,2%,10,
CCOC(=O)C1=C(C)N(CCCC(=O)O)C(=O)NC1c1cccc(OC)c1 (centres undefined),-0.3,-2,.,-6%,.,
CCOc1ccc(C2N(c3ccc(Cl)cc3)C(=O)C3CCCN32)cc1OC (centres undefined),0.9,5,9,-6%,0,Arbovirus inh repeat=-1
Cc1ccc(S(=O)(=O)NCCC(c2ccc(F)cc2)c2ccco2)cc1 (centres undefined),1.1,12,0,1%,-14,

# Not all compounds are listed. The share of hits here may be higher or lower than overall.
